High-throughput results (PubChem)
eIF4H inh: human eIF4H binding inhibitors, primary screen, translation initiation inhibitor project, biochemical, uHTS, fluorescence polarization. Eukaryotic translation initiation factor 4H (Homo sapiens), Q15056. eIF4H fluorescence polarization binding assay. inhibition, % at 35 µM. 0.94% of 290,000 active. AID 2012, 2009;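 active = 50% or more with normal probe brightness, or confirmed in later tests; about a fifth of its hits are not listed in these tables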;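 also: calls also rest on retests at 20 µM and on dose response follow-up; 0% = protein and probe with vehicle and 100% = probe without protein; strong numbers were not always called active; many hits fall short of the cut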
PABP FP inh: PABP poly(A) RNA binding inhibitors, primary screen, biochemical, fluorescence polarization, uHTS; AID 2014, 2009; Polyadenylate-binding protein 1 (Homo sapiens), P11940; inhibition, % at 35 µM; 1% of 290,000 active;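 active = 50% or more with normal probe brightness, or confirmed in later tests; about a fifth of its hits are not listed in these tables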;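 also: calls also rest on retests at 20 µM and on dose response follow-up; controls were probe without protein and protein plus probe with vehicle; some compounds called inactive have numbers as strong as hits; many hits fall short of the cut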
Target sequence (P11940 whole entry, looked up): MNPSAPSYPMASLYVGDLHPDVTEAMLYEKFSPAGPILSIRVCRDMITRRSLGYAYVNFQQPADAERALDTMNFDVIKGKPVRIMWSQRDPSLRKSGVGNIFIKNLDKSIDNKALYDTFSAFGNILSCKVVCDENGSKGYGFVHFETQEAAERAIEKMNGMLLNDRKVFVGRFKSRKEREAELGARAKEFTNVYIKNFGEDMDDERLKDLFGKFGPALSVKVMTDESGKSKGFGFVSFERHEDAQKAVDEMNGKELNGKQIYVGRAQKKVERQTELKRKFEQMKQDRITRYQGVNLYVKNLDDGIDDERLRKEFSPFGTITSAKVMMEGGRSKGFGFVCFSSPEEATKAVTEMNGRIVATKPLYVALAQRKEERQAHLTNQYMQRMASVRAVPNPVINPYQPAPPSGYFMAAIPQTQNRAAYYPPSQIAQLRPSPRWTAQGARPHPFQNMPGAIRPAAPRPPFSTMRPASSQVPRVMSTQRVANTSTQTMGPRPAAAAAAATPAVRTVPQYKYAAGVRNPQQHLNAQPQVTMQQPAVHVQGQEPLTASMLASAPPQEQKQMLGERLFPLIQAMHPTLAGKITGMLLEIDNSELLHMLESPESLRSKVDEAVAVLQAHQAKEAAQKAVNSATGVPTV
Rce1 inhib: yeast Rce1p protease inhibitors, primary screen, biochemical, fluorescence, cell-free homogeneous | CAAX prenyl protease 2 (Saccharomyces cerevisiae (strain ATCC 204508 / S288c)), Q03530 | 0.27% of 290,000 active | AID 2563, 2010 | calls only | yeast membranes, quenched prenylated peptide cleavage fluorescence;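 active = fall in fluorescence gain of 50% or more versus controls, with final raw signal at or below 3038400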;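 also: plate controls were neutral control wells for no effect and wells lacking membranes for full effect; tested at 10 µM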
Target sequence (Q03530 whole entry, looked up): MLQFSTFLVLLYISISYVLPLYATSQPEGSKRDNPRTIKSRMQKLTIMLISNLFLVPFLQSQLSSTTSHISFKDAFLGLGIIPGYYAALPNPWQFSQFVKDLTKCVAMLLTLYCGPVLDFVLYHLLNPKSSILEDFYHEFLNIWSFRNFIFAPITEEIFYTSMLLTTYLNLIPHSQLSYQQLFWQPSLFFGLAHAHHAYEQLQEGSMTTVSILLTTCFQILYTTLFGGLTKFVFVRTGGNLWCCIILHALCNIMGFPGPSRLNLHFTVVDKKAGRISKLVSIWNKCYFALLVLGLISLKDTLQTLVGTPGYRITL
CSC inhib: cancer stem cell viability inhibitors, primary screen, luminescence; cancer stem cell-like cells viability; 1.1% of 300,000 active; inhibition, % at 7.5 µM;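 active = mean at 75% or more and at least half the replicates too; tested in HMLE shEcad cells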;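 also: 0% = median of negative and 100% = median of positive control wells; the first replicate is given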
Env fusion inh: inhibitors of HIV-1 Env-driven cell-cell fusion, primary screen, HeLa-JRFL effector, CEM21 target cells, luciferase | 1.1% of 360,000 active | inhibition, % at 12.3 µM;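 active = mean replicate inhibition score of at least 50 and every replicate individually at or above 50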;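 also: 0% = plate neutral controls and 100% = maraviroc near 300 nM; one replicate is shown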
MT1-MMP act inh: blockers of MT1-MMP proenzyme processing, primary screen, HT1080 RFP-PRO-GFP cells, GFP/RFP fluorescence | Matrix metalloproteinase-14 (Homo sapiens), P50281 | GFP/RFP ratio fluorescence, overnight; percent of plate control window, DMSO zero | GFP/RFP ratio change, % at 20 µM | 0.061% of 360,000 active;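 active = GFP/RFP ratio change of at least 30% with cell ATP level not reduced by more than half and red fluorescence within 50% of control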; also: strong numbers were not always called active
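Compound: 20 µM single dose, 1% DMSO / System: HT1080 RFP-PRO-GFP cells / Controls: DMSO and RFP-L50D-GFP cell wells / Read-out basis: GFP/RFP fluorescence ratio / Schedule: overnight compound exposure at 37 °C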
UUG fidelity: modulators of yeast start codon fidelity, primary screen, whole organism, S. cerevisiae, single point, plate reader; S. cerevisiae UUG-firefly luciferase reporter, luminescence/redox ratio; activity score, % at 18.7 µM; 0.13% of 350,000 active; AID 602363, 2012;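 active = replicate mean at a twofold rise or more, about +100% in these data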;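 also: firefly luciferase made from a UUG start codon reports start codon fidelity; reporter light over untreated wells divided by growth signal over untreated wells; some hits fall short of that in this replicate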
MT1-MMP act inh RFP: further read-out of MT1-MMP act inh, marked with its call; RFP signal change, %; measured here: RFP expression control read;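 0 = vehicle wells; hits needed this value within 50% of zero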
* hit, by the source's call; i = inactive; nt = no result given.

SMILES	eIF4H inh	PABP FP inh	Rce1 inhib	CSC inhib	Env fusion inh	MT1-MMP act inh	MT1-MMP act inh RFP	UUG fidelity
CC(=O)N1CCOc2ccc(S(=O)(=O)N(C)c3ccc(C)cc3)cc21	0	13	i	-2	-5	0	0	3
O=C(Nc1ccc(OCCO)cc1)c1csc([C@@H]2O[C@H](CO)[C@H](O)[C@H](O)[C@H]2O)n1	nt	nt	nt	nt	-17	2	4	-5
COc1cccc(/C=N/NC(=O)CCC(=O)Nc2ccc(Br)cc2)c1	-10	-11	i	-4	10	1	-8	-4
CN(C)S(=O)(=O)c1ccc(C(=O)Nc2nnc(-c3cccs3)o2)cc1	5	-12	nt	20	6	-2	-2	nt
O=C(CCN1CCc2ccccc2C(O)(c2ccccc2)C1)c1ccc2c(c1)OCCO2 (centres undefined)	nt	nt	i	29	nt	-2	3	nt
CCn1ccnc1CN(C)C(=O)C1CCC(=O)N(Cc2cccc(F)c2)C1 (centres undefined)	-15	-6	i	10	14	2	2	-11
COc1ccc(C(C(=O)NCc2ccccc2)N(C(=O)c2snc(C(N)=O)c2N)C2CCCC2)cc1 (centres undefined)	2	12	i	-17	1	-3	0	-1
O=C1NC2(CCSC2)C(=O)N1CC(=O)N(Cc1ccccc1)C1CCS(=O)(=O)C1 (centres undefined)	2	3	i	0	-6	-3	4	-12
NS(=O)(=O)c1ccc(CCNS(=O)(=O)Cc2ccc(Cl)cc2)cc1	-12	4	nt	-7	8	-1	-4	-4
COCCN(C(=O)c1ccccc1Oc1ccccc1)c1c(N)n(CC(C)C)c(=O)[nH]c1=O	nt	nt	nt	-13	-29	-1	0	-38
CCN(CC)S(=O)(=O)c1ccc(C(=O)NCC2(N3CCOCC3)CCCCC2)cc1	nt	nt	nt	-9	-4	3	1	-21
O=c1nc(N2CCOCC2)nc(N/N=C/c2ccc3c(c2)OCO3)[nH]1	8	-1	i	7	-12	0	-2	nt
O=S1(=O)CCOC[C@H](CC2CCCCC2)N1Cc1ccccc1F	12	6	i	7	0	1	-3	13
Nc1c(-c2ccccc2)cnn1-c1ccc(C(=O)O)cc1	-8	4	i	nt	-81	1	-2	-58
CCCCC(=O)Nc1ccccc1C(C)C	-8	-7	nt	3	nt	nt	nt	nt
COc1ccc(-c2[nH]ncc2CN2CCC(OCc3ccccc3)CC2)c(F)c1	6	-8	i	6	-12	-2	-9	0
O=C(NCc1ccc(F)cc1)c1cc(C2CCCCN2C(=O)c2ccccn2)on1 (centres undefined)	nt	nt	nt	nt	-28	-1	4	-5
COC(C[C@@H]1O[C@@H]1[C@H](O)COCc1ccccc1)OC	-4	-6	nt	-7	0	3	3	-27
COc1cccc(CC(=O)N(CCC2=CCCCC2)c2c(N)n(Cc3ccccc3)c(=O)[nH]c2=O)c1	nt	nt	i	-20	nt	-5	-2	nt
Cc1cc(C)c(N(C(=O)c2csnn2)C(C(=O)NC2CCCC2)c2ccncc2)c(C)c1 (centres undefined)	-8	-7	i	-3	-19	0	-2	-24
COc1ccc(C(=O)NNC(=S)NC(=O)/C=C/c2cccs2)cc1	21	-3	i	-8	-6	-10	-15	nt
COC(=O)c1c(NC(=O)c2ccco2)sc(C(=O)N(C)C)c1C	-10	-2	nt	6	-34	-2	6	nt
CC1=C(C(=O)N2CCOCC2)CC(CC(=O)NCCc2ccccn2)C(=O)N1Cc1ccc(C(C)(C)C)cc1 (centres undefined)	nt	nt	nt	nt	-12	1	2	1
O=C1CCC(C(=O)N2CCCCO2)CN1Cc1cccc(C(F)(F)F)c1 (centres undefined)	-13	5	i	nt	-24	4	1	18
CCOc1c(OC(C)=O)ccc(/C=C/c2ccc3cccc(OC(C)=O)c3n2)c1[N+](=O)[O-]	13	2	i	-6	nt	12	-1	-18

As entered above.
PABP FP inh with `O=C1CCC(C(=O)N2CCCCO2)CN1Cc1cccc(C(F)(F)F)c1` (centres undefined) stands at 5
MT1-MMP act inh with `O=C1NC2(CCSC2)C(=O)N1CC(=O)N(Cc1ccccc1)C1CCS(=O)(=O)C1` (centres undefined) stands at -3
eIF4H inh with `Cc1cc(C)c(N(C(=O)c2csnn2)C(C(=O)NC2CCCC2)c2ccncc2)c(C)c1` (centres undefined) stands at -8

An excerpt from above in order of molar mass, high to low:
SMILES	eIF4H inh	PABP FP inh	Rce1 inhib	CSC inhib	Env fusion inh	MT1-MMP act inh	MT1-MMP act inh RFP	UUG fidelity
COc1cccc(CC(=O)N(CCC2=CCCCC2)c2c(N)n(Cc3ccccc3)c(=O)[nH]c2=O)c1	nt	nt	i	-20	nt	-5	-2	nt
CCN(CC)S(=O)(=O)c1ccc(C(=O)NCC2(N3CCOCC3)CCCCC2)cc1	nt	nt	nt	-9	-4	3	1	-21
COc1cccc(/C=N/NC(=O)CCC(=O)Nc2ccc(Br)cc2)c1	-10	-11	i	-4	10	1	-8	-4

Following part.
SMILES	eIF4H inh	PABP FP inh	Rce1 inhib	CSC inhib	Env fusion inh	MT1-MMP act inh	MT1-MMP act inh RFP	UUG fidelity
COc1ccc(C2=NN(C(=O)CSc3cn(C)c4ccccc34)C(c3ccc(OC)cc3)C2)cc1 (centres undefined)	-7	0	i	16	5	-3	-10	-18
Cc1cc(NS(=O)(=O)c2ccccc2)n(-c2ccccc2)n1	-5	4	i	6	-236	9	13	-11
COc1ccc2oc(C(=O)OCC(=O)Nc3ccccc3OC)c(C)c2c1	nt	nt	i	2	nt	3	7	-20
CC(C)Oc1ccc(C(CC(=O)O)NC(=O)Cc2ccccc2)cc1 (centres undefined)	2	9	i	-6	7	-1	1	-8
Cn1c(C(=O)N(Cc2ccccc2)Cc2ccccn2)cc2sccc21	-1	-2	i	-18	1	-3	-3	7
COc1ccc(CN2CNc3nc4ccccc4n3C2)cc1	1	0	i	nt	-5	1	3	-31
CC(C)(C)c1ccc(C(=O)N/C(=C\c2cccs2)C(=O)NCc2ccco2)cc1	-3	-2	i	-19	-7	7	-1	12
CCC(C)C(=O)Nc1nccs1 (centres undefined)	2	3	i	-17	-6	0	1	nt
CS(=O)(=O)N1CCCC(C(=O)NCc2cccs2)C1 (centres undefined)	-1	0	i	-12	-8	1	2	-17
C=CCn1cnnc1SCC(=O)NCC1COc2ccccc2O1 (centres undefined)	nt	nt	nt	nt	-10	-1	0	-18
CCOC(=O)C1=C(C)C2C3C(=O)N(c4cc(C)ccc4C)C(=O)C3C1(C)C1C(=O)N(c3cc(C)ccc3C)C(=O)C21 (centres undefined)	0	2	i	5	34	-2	-1	nt
Cc1nc2c(C)cccn2c(=O)c1NC(=O)c1ccc2c(c1)OCO2	nt	nt	i	nt	2	1	5	-19
Cc1ccc(C)c(S(=O)(=O)N2CCN(C(=O)c3ccc(-n4cncn4)c([N+](=O)[O-])c3)CC2)c1	nt	nt	i	-7	15	-4	-6	nt
CCNc1nc(-c2ccc(OC(F)F)cc2)c(C)s1	10	-9	i	-6	-44	1	0	nt
c1ccc(OCc2nnc3n2CCCCC3)cc1	-2	-3	i	-4	8	1	1	-11
Cc1ccc(C(=O)OCC(=O)Nc2sc3c(c2C#N)CCCCC3)cc1NC(=O)c1ccco1	28	2	i	-6	nt	0	-4	-16
COc1ccc(NC(=O)CN2C(=O)COc3ccc(S(=O)(=O)N4CCCCC4)cc32)cc1OC	nt	nt	i	2	-3	0	1	-13
CCCc1nnc(NC(=O)c2nc(S(=O)(=O)Cc3ccc(C)cc3)ncc2Cl)s1	-10	-2	i	108*	-5	-2	6	-8
Cc1ccc(NC(=O)c2ccc(N3CCOCC3)c([N+](=O)[O-])c2)cc1S(=O)(=O)N1CCOCC1	-7	1	i	3	43	6	-16	nt
CCOC(=O)N1CCN(C(=O)Cn2cnc3ccccc3c2=O)CC1	-6	-8	i	-3	-14	-2	5	nt
O=C(Nc1sc2c(c1C(=O)O)CCCC2)c1ccccc1Cl	-2	8	i	13	-8	3	2	-2
COc1ccc(C(=O)N2CCCC(c3nc(-c4cccs4)no3)C2)cc1OC (centres undefined)	-2	6	i	-5	nt	1	-4	nt
CCC(=O)Nc1ccc(NC(=O)c2ccccc2)nc1	6	-8	i	-3	-19	0	-1	nt
COc1ccccc1/C=C/C=N/n1c(-c2ccc(Cl)cc2Cl)n[nH]c1=S	3	-2	i	45	-11	0	-1	nt
O=C(Nc1cccc(O)c1)C1CC(c2ccc(Cl)cc2)=NO1 (centres undefined)	-4	12	nt	-2	23	5	4	1

Next part, overlapping the part above by 5 compounds.
SMILES	eIF4H inh	PABP FP inh	Rce1 inhib	CSC inhib	Env fusion inh	MT1-MMP act inh	MT1-MMP act inh RFP	UUG fidelity
O=C(Nc1sc2c(c1C(=O)O)CCCC2)c1ccccc1Cl	-2	8	i	13	-8	3	2	-2
COc1ccc(C(=O)N2CCCC(c3nc(-c4cccs4)no3)C2)cc1OC (centres undefined)	-2	6	i	-5	nt	1	-4	nt
CCC(=O)Nc1ccc(NC(=O)c2ccccc2)nc1	6	-8	i	-3	-19	0	-1	nt
COc1ccccc1/C=C/C=N/n1c(-c2ccc(Cl)cc2Cl)n[nH]c1=S	3	-2	i	45	-11	0	-1	nt
O=C(Nc1cccc(O)c1)C1CC(c2ccc(Cl)cc2)=NO1 (centres undefined)	-4	12	nt	-2	23	5	4	1
CCN(CCO)c1ncnc2c1sc1nc(C(C)C)c3c(c12)CC(C)(C)OC3	9	0	i	42	-16	-4	0	-14
CCn1cc(C(=O)O)c(=O)c2cc(F)c(N3CCN(C(=S)NC(=O)c4ccccc4Cl)CC3)cc21	9	11	i	-11	3	3	-2	-15
O=C(NC(=S)Nc1ccc(S(=O)(=O)Nc2nccs2)cc1)c1cccc(F)c1	-9	-1	i	5	nt	2	2	-20
COc1ccccc1-n1cnc2cc(C(=O)NCc3ccco3)ccc21	11	6	i	-1	nt	-5	0	-19
O=C(NC1CCCCNC1=O)c1ccc(Cl)cc1 (centres undefined)	-2	-7	i	-4	nt	7	3	-10
COc1ccccc1CCNC(=O)CSc1nnc2ccc(-c3cccnc3)nn12	0	2	i	3	-12	-4	-4	-4
O=C(NNc1cccc([N+](=O)[O-])c1)/C(=C\c1cccnc1)NC(=O)c1ccccc1	-12	-8	i	-15	-3	1	3	-30
CN(C(=O)NC1CC(=O)N(c2ccc3c(c2)OCCO3)C1)c1ccccc1 (centres undefined)	nt	nt	i	-11	-34	-2	1	-7
